# Compound activity as filed in PubChem.
# MLL AF4-AF9 inh: MLL-AF4/AF9 protein interaction inhibition | AlphaScreen, biotin-AF4 peptide binding to FLAG-AF9 | 350,000 compounds, 0.47% hits | AID 651704 | inhibition, % at 10 µM;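 active means every replicate reaching a set inhibition limit, whatever the replicate mean, cut at about 25% in these data; inconclusive means mean inhibition reaches that limit but some replicates miss it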;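 further: 0% = plate neutral control median and 100% = total signal loss; the record names both 10 and 1 µM as test concentration; the first replicate is given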
# Target sequence (P42568 whole entry, looked up): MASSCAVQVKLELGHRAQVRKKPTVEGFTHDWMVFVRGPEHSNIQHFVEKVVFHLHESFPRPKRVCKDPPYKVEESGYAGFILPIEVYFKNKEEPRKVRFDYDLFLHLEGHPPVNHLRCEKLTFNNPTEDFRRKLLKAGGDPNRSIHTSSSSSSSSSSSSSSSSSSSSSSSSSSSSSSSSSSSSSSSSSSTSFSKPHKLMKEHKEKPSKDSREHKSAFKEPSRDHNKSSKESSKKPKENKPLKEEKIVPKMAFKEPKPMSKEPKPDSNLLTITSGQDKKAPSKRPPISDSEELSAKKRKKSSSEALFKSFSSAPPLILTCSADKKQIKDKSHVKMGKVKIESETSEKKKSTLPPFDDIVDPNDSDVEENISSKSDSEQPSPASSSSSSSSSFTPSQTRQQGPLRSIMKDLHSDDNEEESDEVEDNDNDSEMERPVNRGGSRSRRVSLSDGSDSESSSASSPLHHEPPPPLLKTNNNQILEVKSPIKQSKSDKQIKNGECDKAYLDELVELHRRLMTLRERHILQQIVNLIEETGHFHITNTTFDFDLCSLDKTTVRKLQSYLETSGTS
# Vif TR-FRET: HIV-1 Vif–A3G interaction blockers – biochemical, TR-FRET, GST-Vif 1-94, biotin-A3G peptide, dose response retest, primary screen (AID 1117319) | TR-FRET GST-Vif / biotin-A3G peptide binding; higher % means a stronger effect; test concentration not given here; strong numbers were not always called active | inhibition, %, or IC50 in µM where a hit was titrated | 260,000 compounds, 0.57% hits;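 active means above the screen mean plus three standard deviations and confirmed in dose response; inconclusive means results disagree or hit not tested in dose response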;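 further: Vif residues 1-94 fused to GST binding biotinylated APOBEC3G peptide 110-148; 0% = full assay without inhibitor and 100% = GST in place of GST-Vif; retest series ran down from 100 µM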
# Beta apoptosis: blocks beta cell apoptosis | AID 435005 | INS-1E cytokine-induced death, ATP luminescence, 48 h; percent of positive-control rescue, neutral wells zero | protection from apoptosis, % (no concentration beside the values) | 300,000 compounds, 0.8% hits;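 active means all replicates at 75% or more, or half of them and the mean; inconclusive means half reach 75% but not the mean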;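 further: 0% = cytokine-treated negative control wells and 100% = positive control rescue; higher means more ATP so stronger rescue from cytokine killing; wells of about 40 µL received 100 nL stock; the first replicate is given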
# Calb FLC: affects C. albicans growth with fluconazole; C. albicans CaCi-2 (fluconazole-resistant clinical isolate) + fluconazole, Alamar Blue growth, 48 h; AID 1979; 300,000 compounds, 0.57% hits; growth inhibition, % (no concentration beside the values);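 active means most replicates above 75%; inconclusive means exactly half above 75%; inactive means most below 75%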;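 further: all wells also contain fluconazole at 8 µg/ml as a sub-toxic cotreatment; 0% = median of DMSO wells and 100% = median of geldanamycin control wells; wells of about 8 µL received 7.5 nL stock; the first replicate is given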
# T cruzi inh: blocks replication of Trypanosoma cruzi | T. cruzi beta-gal in NIH3T3, luminescence, 90 h | inhibition, % (test concentration not listed) | AID 1885 | 300,000 compounds, 1.4% hits;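 active means mean inhibition across valid replicates above about 55%, limit read from the data; inconclusive means mean below that limit but half or more replicates reach it; inactive means mean below it, under half of replicates reach it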;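 further: signal also drops with host cell toxicity which is not excluded here; 0% = plate median of DMSO wells and 100% = zero luminescence signal; higher percent means less beta-gal luminescence so fewer parasites; stock transfer was 50 nL into about 50 µL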
# A1 inh: inhibitors of the anti-apoptotic protein A1, read as caspase activation; caspase activation, % (test concentration not listed); MEF A1-2A-BIM cells, Caspase-Glo 3/7 luminescence, 3 h; percent of clofoctol response, vehicle zero; 330,000 compounds, 0.066% hits; AID 2462;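 active means over half of replicate activation scores above 10%, or exactly half above 10 with the replicate mean above 10; inconclusive means replicate mean below 10 yet half the replicates above 10; inactive means over half of replicates below 10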;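 further: wells of about 30 µL received 50 nL stock; many hits fall short of the cut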
# RanGTP-Impb inh: disruptors of Ran-importin-beta complex formation – biochemical, FRET, CFP-Ran, YFP-importin-beta, homogeneous, primary screen; cell-free CFP-Ran/YFP-importin-beta FRET ratio; inhibition, % (test concentration not listed); 300,000 compounds, 1.1% hits; AID 2216;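 active means most replicates above 15%; inconclusive means exactly half above 15%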;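 further: 0% = DMSO wells and 100% = Ran loaded with GDP instead of GTP; wells of about 40 µL received 100 nL stock; the first replicate is given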
# rRNA inh HTS: inhibitors of bacterial rRNA selective over humanized ribosomes. E. coli WT GFP vs humanized-ribosome RFP mutants, fluorescence, 24 h; stronger effect = lower value; DMSO median 0, no signal -100. GFP signal change (wild-type ribosome), % (no concentration beside the values). 350,000 compounds, 1.6% hits. AID 720706;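 active means significant combined selectivity score with lowered wild-type GFP, culture density cut under 30%, mutant RFP and density less affected; inactive means any of these conditions unmet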; further: one replicate is shown; some compounds called inactive have numbers as strong as hits
# rRNA inh HTS OD600: also measured in rRNA inh HTS; calls as there; OD600 change, %; measured here: OD600 growth;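 optical density of the mix in the first replicate; 0 = DMSO median and -100 = no signal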
# rRNA inh HTS RFP: second read-out of rRNA inh HTS, no call of its own (marks repeat the call); RFP signal change, %; measured here: RFP humanized mutant strains;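 first replicate; 0 = DMSO median and -100 = no signal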
# * hit, by the source's call; ? = inconclusive; nt = not tested or not shown. An excerpt; the hit share may differ from the screen's.
SMILES,MLL AF4-AF9 inh,Vif TR-FRET,Beta apoptosis,Calb FLC,T cruzi inh,A1 inh,RanGTP-Impb inh,rRNA inh HTS,rRNA inh HTS OD600,rRNA inh HTS RFP
Cc1cc(C)cc(NC(=O)CSc2nnc(-c3ccc(S(=O)(=O)N4CCCC4)cc3)o2)c1,nt,6%,nt,6,22,-0.6,2.2,nt,nt,nt
CCN(CC)C(=O)CSc1nnc(-c2ccccn2)n1Cc1ccccc1,1.8,5%,-8,-2,2,-0.5,-1.5,-7,-3,-1.2
CCOC(=O)N1CCC(N2Cc3cccc(C(=O)O)c3C2=O)CC1,7.4,7%,-5,-1,0,1.5,-0.9,0,9,-3.6
C/C(=N\NC(=O)c1ccccn1)c1ccc(C(=O)O)s1,-1.9,?,6,31,-30,-0.7,1.7,15,17,0.8
COc1cc(S(=O)(=O)N2CCOCC2)ccc1NC(=O)COC(=O)c1ccc(Cl)nc1,0.4,nt,-1,nt,nt,-0.4,nt,2,1,-1.6
O=C(NCC1CCCO1)C1CCCN(S(=O)(=O)c2ccc(Br)cc2)C1 (stereo not given),-1.4,-6%,-1,-6,-6,0.0,-1.5,7,17,1.2
Cc1ccc(C(=O)OCC(=O)Nc2ccc(C(N)=O)cc2)s1,-3.8,nt,-3,nt,nt,-1.1,nt,8,11,-3.2
COC(=O)c1ccc(NC(=O)CN2CCN(CCO)CC2)cc1,-2.1,10%,-4,-14,2,-1.3,2.6,13,3,4.2
NC(=O)c1cc[n+](Cc2ccc([N+](=O)[O-])cc2)cc1,4.5,-10%,2,2,-2,-0.6,4.2,2,4,-2.1
Cc1cccc(NC(=O)C2(c3cccs3)CCOCC2)n1,nt,12%,4,-3,14,-0.4,3.7,nt,nt,nt
CCOc1ncccc1C(=O)N1CCN(S(=O)(=O)c2ccccc2)CC1,-8.1,12%,-10,-8,-6,-0.3,2.0,3,5,-0.7
CCN(CC)CCCN1C(=O)C(=O)/C(=C(/O)c2ccccc2)C1c1cc(OC)ccc1OC (stereo not given),nt,-2%,-3,-4,-10,0.1,-0.1,nt,nt,nt
O=P(O)(CP(=O)(c1ccccc1)c1ccccc1)c1ccccc1O,nt,16%,-4,-10,-15,0.1,2.3,nt,nt,nt
Nc1nc(N)nc(-c2ccccc2-c2nc(N)nc(N)n2)n1,-4.4,3%,-7,7,-7,0.2,3.0,51,0,-0.4
COc1ccc(Cc2nnc(NC(=O)Nc3ccccc3)s2)cc1OC,3.5,-7%,-3,-1,1,-0.4,0.0,13,14,0.4
CN1C(=O)CSc2ccc(NC(=O)NCCC3=CCCCC3)cc21,nt,18%,5,-6,5,-0.5,2.9,nt,nt,nt
COc1cccc(SCc2noc(C(=O)NCCCN3CCOCC3)c2C(=O)NCCCN2CCOCC2)c1,nt,nt,nt,1,-6,-2.1,-0.6,nt,nt,nt
COc1ccc(N2CCN(S(=O)(=O)c3ccc(Br)s3)CC2)cc1,nt,0%,-5,-10,35,-0.3,-2.9,nt,nt,nt
COc1ccccc1C(=O)N1CCN(S(=O)(=O)Cc2ccccc2)CC1,nt,-2%,-6,-10,-10,0.3,0.4,nt,nt,nt
O=C(NCCN1CCOCC1)C1CC(=O)N(c2ccc(Cl)cc2)C1 (stereo not given),-2.1,nt,-2,2,-12,0.3,1.6,5,19,-2.9
Cc1ccc(F)cc1NC(=O)COC(=O)c1ccc2ncsc2c1,4.9,-22%,-1,nt,nt,0.4,nt,1,7,-1.1
CCOc1ccc2ncc(S(=O)(=O)c3ccccc3)c(N3CCN(c4ccccc4)CC3)c2c1,2.6,nt,2,-9,35,-0.7,0.5,10,-1,1.9
COc1ccccc1C(=O)OCC(=O)c1cccc([N+](=O)[O-])c1,1.5,2%,nt,-19,-15,0.1,2.4,9,5,-5.5
COc1ccc(OC)c(NC(=O)COC(=O)c2ccc(OC)c(S(=O)(=O)N3CCOCC3)c2)c1,3.2,69%,-2,nt,nt,0.4,nt,7,8,1.1
Cc1cccc(NC(=O)/C(=C\c2cccs2)NC(=O)c2ccccc2)c1,nt,-6%,0,-4,12,1.1,2.3,-8,-6,-0.1
COC(=O)Cc1n[nH]c(=S)[nH]c1=O,8.0,8%,-9,-9,-17,0.9,-4.1,8,-1,-7.0
O=C(NC(=O)c1ccccc1Cl)C(=O)Nc1ccc(Cl)cc1,0.3,-13%,-7,-1,-8,0.3,7.8,20,16,-0.3
O=[N+]([O-])c1ccc(O)c(/C=N/n2c(CO)nc3ccccc32)c1,-5.5,-13%,2,3,-15,0.4,-0.4,19,12,-0.7
CCOC(=O)c1c(C(F)(F)F)nc2ncccn12,nt,22%,5,-6,-8,2.3,2.2,nt,nt,nt
CCOC(=O)c1c(N)sc(C(C)=O)c1C,nt,20%,-11,3,-5,0.6,-3.8,nt,nt,nt
CCOC(=O)NC(=O)C(=CNc1cccc(C)c1)C(=O)NC(=O)OCC,-0.7,7%,2,-25,-26,0.0,-5.4,-2,6,1.9
O=C(CCN1C(=O)COc2ccccc21)NCCCN1CCc2ccccc2C1,nt,-3%,-5,-21,-24,0.4,3.8,3,3,0.2
Cc1ccc(C)c(N2CCN(S(=O)(=O)c3ccc4c(c3)CC(=O)N4C)CC2)c1,1.2,nt,2,25,-5,0.1,-1.8,-3,9,8.9
CC(=O)Oc1ccc2c(c1)OC(c1ccccc1)CC21CC(C)(C)NC(=S)N1 (stereo not given),nt,-4%,0,?,4,1.3,-2.6,nt,nt,nt
O=C(O)CCc1ccc(-c2ccc(Br)cc2)o1,nt,74%,0,42,17,-1.0,3.4,nt,nt,nt
O=C(Nc1ccc(OC(F)(F)F)cc1)c1[nH]ncc1[N+](=O)[O-],-1.9,4%,8,1,-1,-8.3,-2.4,-37,-46,-9.3
Cc1cccn2c(=O)c(/C=C(\C#N)S(=O)(=O)c3ccccc3)c(N3CCN(Cc4ccccc4)CC3)nc12,4.3,-7%,-4,-5,-16,-0.3,0.8,0,2,0.9
Cc1ccc(NC(=O)Cn2ccc([N+](=O)[O-])n2)cc1Cl,0.8,-8%,-1,-6,8,-0.6,4.9,2,4,-2.0
COc1ccc(CCN=C(N)NS(=O)(=O)c2ccccc2)cc1,0.7,-6%,-18,14,-28,0.0,-1.4,-12,-3,-1.6
Cc1nc(S(=O)(=O)c2ccc(Cl)cc2)nc2c1CCC2,nt,?,-4,-7,-4,0.6,-0.3,nt,nt,nt
Clc1ccccc1C(c1ccccc1)(c1ccccc1)n1ccnc1,11,nt,25,nt,43,0.0,-1.4,nt,nt,nt
Cc1ccc(-c2csc(NC(=O)c3c(C)noc3C)n2)cc1C,1.3,-16%,6,nt,nt,0.6,nt,0,-12,-4.6
CCCCC(CC)Cn1c2nc3ccccc3nc2c2c(=N)oc(C)nc21 (stereo not given),nt,-8%,nt,12,42,nt,-1.4,nt,nt,nt
COc1ccc(NC(=O)Nc2cc(C(C)(C)C)on2)cc1OC,3.8,-7%,-2,-10,8,0.7,7.2,-26*,-17*,-1.2*
CCCCN1C(=O)C(O)=C(C(C)=O)C1c1ccccc1[N+](=O)[O-] (stereo not given),-2.9,13%,-3,1,1,1.0,-0.9,12,7,3.9
O=C(c1cc(COc2ccc(F)cc2Cl)on1)N1CCCCC1c1cccnc1 (stereo not given),2.5,nt,11,9,40,0.2,1.9,-1,1,-0.3
O=C(CC1(CC(=O)N2CCOCC2)CCCC1)Nc1ccc(F)cc1,-5.6,4%,-5,nt,nt,0.8,nt,3,6,-0.7
CCOc1ccc(NC2CCN(C(C)=O)CC2)cc1,13,5%,6,1,-5,-0.4,-1.3,12,7,0.2
COc1ccccc1CN(Cc1nc2ccccc2c(=O)[nH]1)C(=O)Nc1ccccc1,nt,-1%,10,2,-6,0.0,-0.8,nt,nt,nt
Cc1ccc(S(=O)(=O)N2CCCC(C(=O)Nc3ccc(NC(=O)c4ccccn4)cc3)C2)cc1 (stereo not given),nt,27%,2,-2,-9,-0.9,0.4,nt,nt,nt
CCCCCCCC(=O)Nc1cc(C(=O)NCc2ccc(C)cc2)ccc1N1CCC2(CC1)CC(c1ccccc1)=NO2,-9.6,nt,-7,9,9,1.4,1.3,22,20,0.9
Cc1ccccc1OC(C)C(=O)NC1CCCC1 (stereo not given),nt,-1%,-3,-19,-13,0.1,-2.4,nt,nt,nt
CC1Cc2ccccc2N1C(=O)CCS(=O)(=O)c1cccc2nonc12 (stereo not given),nt,0%,-11,-6,6,-0.2,?,nt,nt,nt
CC(=O)c1ccc(OCC(=O)OC(C)C(=O)NC2CCCCC2C)cc1 (stereo not given),0.9,3%,1,nt,nt,-0.8,nt,5,13,-2.7
CN(Cc1ccccc1)C(=O)Nc1ccccc1,nt,-2%,-7,-3,-10,0.5,-0.3,nt,nt,nt
CC1CCC2(CC1)NC(=S)N(c1ccccc1)N2 (stereo not given),nt,1%,-4,nt,3,-1.5,0.1,nt,nt,nt
CCOc1ccc(-n2ccc(=O)c(C(=O)Nc3ccc(S(=O)(=O)Nc4ncccn4)cc3)n2)cc1,0.1,-6%,-6,-25,-9,0.6,1.4,9,17,-2.6
CC(=O)Nc1cc(ON=C(C)C)cc([N+](=O)[O-])c1,nt,7%,2,0,-12,1.4,7.8,nt,nt,nt
C=CCn1c(-c2cccnc2)n[nH]c1=S,-7.3,nt,2,-1,-9,0.6,-1.1,11,1,-2.5
CCOc1ccccc1C(=O)N/N=C/c1coc2ccc(C)cc2c1=O,0.1,nt,-4,-20,nt,1.9,nt,4,7,-0.3

# (continued)
SMILES,MLL AF4-AF9 inh,Vif TR-FRET,Beta apoptosis,Calb FLC,T cruzi inh,A1 inh,RanGTP-Impb inh,rRNA inh HTS,rRNA inh HTS OD600,rRNA inh HTS RFP
Clc1ccc(-c2nnc(N3CCCC3)nn2)cc1,nt,25%,-9,-26,1,0.4,6.6,nt,nt,nt
COC(=O)CCCC[C@@H]1SC[C@@H](NC(=O)OC)[C@@H]1NC(=O)OC,nt,1%,-7,3,1,-0.5,0.5,nt,nt,nt
Cc1ccc(-c2cc3nc(-c4ccc(Br)cc4)cc(N)n3n2)cc1,nt,nt,0,40,12,0.5,2.6,nt,nt,nt
COC(=O)c1c(C(=O)OC)c2oc3ccccc3n2c1Cl,nt,5%,nt,10,3,-0.7,-4.4,nt,nt,nt
Cc1c(OCC(=O)C(C)(C)C)ccc2c(-c3ccccc3)cc(=O)oc12,-0.3,nt,13,15,9,0.1,-0.5,2,-10,-1.3
COc1cc(C(=O)NCCSc2ccc(Cl)cc2)cc(OC)c1OC,-0.9,-7%,-6,2,-2,-1.0,-1.3,-7,-11,7.5
O=C(O)CCCCCCCCCCCc1ccccc1,-1.5,-8%,nt,1,-15,1.6,4.7,nt,nt,nt
C=CCC(Nc1ccccc1)c1cccc(OC)c1OC (stereo not given),-1.3,5%,-3,4,-8,-0.5,3.3,-10,-9,-3.3
COc1ccc(N(C(=O)CNC(=O)c2ccco2)C(C(=O)NCC2CCCO2)c2ccccc2)cc1 (stereo not given),8.9,nt,-3,2,-2,-0.4,-1.9,3,9,-1.1
